# Bioassay records (PubChem)
# Bfl-1 A1 inh = inhibitors of the anti-apoptotic protein A1, read as caspase activation | MEF A1-2A-BIM cells, Caspase-Glo 3/7 luminescence, 3 h; percent of clofoctol response, vehicle zero | caspase activation, % (concentration not given with the values) | 330,000 tested, 0.066% active | AID 2462;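 active = over half of replicate activation scores above 10%, or exactly half above 10 with the replicate mean above 10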;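 note: wells of about 30 µL received 50 nL stock; many hits fall short of the cut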
# E coli growth = inhibitors of Escherichia coli growth; AID 1053175; 330,000 tested, 0.21% active; OD600, 23 h; hits give low values; OD600 absorbance (no concentration beside the values);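 active = OD600 absorbance below the run mean of sample wells minus 3.6 SD, in any replicate, cut at about 0.56 in these data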;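 note: stock transfer was 300 nL into about 60 µL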
# UCH37 DUB inh = blocks the human deubiquitinase UCH37. Q9Y5K5. purified proteasome/UCH37, Ub-AMC cleavage fluorescence. inhibition, % (no concentration beside the values). 330,000 tested, 0.33% active. AID 588478;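 active = mean of two replicates above 20%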;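 note: 0% = compound-free wells with enzyme and 100% = wells lacking proteasome; stock transfer was 100 nL into about 20 µL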
#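 Assay system: Proteasome-bound UCH37. Buffer or medium: pH 7.4 Tris-HCl (50 mM) with ovalbumin, ATP-MgCl2, DTT. Incubation: 30 min preincubation with enzyme, 25 min cleavage at room temperature. Measured by: fluorescence, ex 355 nm, em 460 nm. Read-out basis: percent inhibition. Control set: wells without proteasome as full block, compound-free enzyme plus substrate as uninhibited.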
# Beta cell apopt = beta cell apoptosis inhibition; protection from apoptosis, % (test concentration not listed); INS-1E cytokine-induced death, ATP luminescence, 48 h; percent of positive-control rescue, neutral wells zero; 300,000 tested, 0.8% active;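 active = all replicates at 75% or more, or half of them and the mean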;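 note: 0% = cytokine-treated negative control wells and 100% = positive control rescue; higher means more ATP so stronger rescue from cytokine killing; wells of about 40 µL received 100 nL stock; the first replicate is given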
# Ecoli rRNA inh = selective bacterial rRNA inhibition in E. coli. E. coli WT GFP vs humanized-ribosome RFP mutants, fluorescence, 24 h; hits give low values; DMSO median 0, no signal -100. GFP signal change (wild-type ribosome), % (test concentration not listed). 350,000 tested, 1.6% active;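 active = significant combined selectivity score with lowered wild-type GFP, culture density cut under 30%, mutant RFP and density less affected; inactive = any of these conditions unmet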; note: one replicate is shown; some compounds called inactive have numbers as strong as hits
# MLL AF4-AF9 inh = inhibitors of human MLL-AF4/AF9 interaction. inhibition, % at 10 µM. AID 651704. AlphaScreen, biotin-AF4 peptide binding to FLAG-AF9. 350,000 tested, 0.47% active;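 active = every replicate reaching a set inhibition limit, whatever the replicate mean, cut at about 25% in these data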;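 note: 0% = plate neutral control median and 100% = total signal loss; the record names both 10 and 1 µM as test concentration; the first replicate is given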
# Target sequence (P42568 whole entry, looked up): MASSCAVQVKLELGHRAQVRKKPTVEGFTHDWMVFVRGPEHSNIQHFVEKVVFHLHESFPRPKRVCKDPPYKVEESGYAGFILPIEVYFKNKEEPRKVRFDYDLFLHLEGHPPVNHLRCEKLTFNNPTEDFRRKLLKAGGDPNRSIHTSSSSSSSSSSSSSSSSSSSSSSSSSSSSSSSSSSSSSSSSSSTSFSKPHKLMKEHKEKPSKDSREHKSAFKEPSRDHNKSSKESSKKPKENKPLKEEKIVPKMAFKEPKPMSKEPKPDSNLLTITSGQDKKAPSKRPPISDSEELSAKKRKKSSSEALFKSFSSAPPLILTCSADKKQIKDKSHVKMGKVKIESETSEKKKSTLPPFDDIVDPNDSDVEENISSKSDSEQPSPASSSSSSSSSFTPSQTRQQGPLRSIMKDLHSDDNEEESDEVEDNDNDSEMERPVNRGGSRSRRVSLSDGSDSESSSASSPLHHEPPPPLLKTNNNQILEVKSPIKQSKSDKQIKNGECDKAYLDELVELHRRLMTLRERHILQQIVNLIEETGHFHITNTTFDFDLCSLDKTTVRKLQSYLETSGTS
# T cruzi inh = T. cruzi replication inhibition; T. cruzi beta-gal in NIH3T3, luminescence, 90 h; inhibition, % (concentration not given with the values); 300,000 tested, 1.4% active;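 active = mean inhibition across valid replicates above about 55%, limit read from the data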;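 note: signal also drops with host cell toxicity which is not excluded here; 0% = plate median of DMSO wells and 100% = zero luminescence signal; higher percent means less beta-gal luminescence so fewer parasites; stock transfer was 50 nL into about 50 µL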
# FGF22 binding = binders of recombinant human FGF22 by thermal shift; Q9HCT0; SYPRO orange fluorescence; percent of sucrose octasulfate shift, DMSO zero; calls only at 9.99 µM; 340,000 tested, 1.5% active; AID 651658;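 active = melting point raised past a set limit in the mean and every replicate; three in four hits are not shown here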
# Target sequence (Q9HCT0 whole entry, looked up): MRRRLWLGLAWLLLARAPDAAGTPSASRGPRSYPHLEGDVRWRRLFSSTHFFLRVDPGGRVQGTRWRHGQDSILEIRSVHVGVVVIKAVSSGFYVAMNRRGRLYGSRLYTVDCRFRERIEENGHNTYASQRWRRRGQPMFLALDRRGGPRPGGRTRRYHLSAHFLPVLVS
# Ecoli rRNA inh OD600 = further read-out of Ecoli rRNA inh, marked with its call; OD600 change, %; measured here: OD600 growth;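 optical density of the mix in the first replicate; 0 = DMSO median and -100 = no signal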
# Ecoli rRNA inh RFP = also measured in Ecoli rRNA inh; calls as there; RFP signal change, %; measured here: RFP humanized mutant strains;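 first replicate; 0 = DMSO median and -100 = no signal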
# The depositor's hits bear a star; i = inactive; / = no result given. Some of the compounds tested; rates above refer to the full screens.
# Each structure is followed by: Bfl-1 A1 inh	E coli growth	UCH37 DUB inh	Beta cell apopt	Ecoli rRNA inh	Ecoli rRNA inh OD600	Ecoli rRNA inh RFP	MLL AF4-AF9 inh	T cruzi inh	FGF22 binding
Cc1ccc(C(C)(C)C)cc1S(=O)(=O)Nc1cccc(S(=O)(=O)NC2=NCCC2)c1
    -0.2	0.712	2.3	/	/	/	/	/	-0.3	/
CCCCc1c(O)nc(SCC(=O)c2ccccc2)n(-c2ccccc2C)c1=O
    1.4	0.674	6.9	-4.8	-31.9*	-7.4*	-5.6*	-5.6	-6.4	i
CC1(C)C(=O)NCCN1C(=O)c1ccc2nc(Cc3ccccc3F)oc2c1
    0.4	0.706	2.3	-3.2	7.6	3.7	0.7	-6.4	-6.2	i
Cc1nc2ncnn2c(N2CCN(C(=O)c3cccc(F)c3)CC2)c1Cc1ccccc1
    -0.7	0.717	1.3	6.1	/	/	/	/	7.9	/
COc1ccc(N2CCN(C(=O)c3ccccc3F)CC2)c([N+](=O)[O-])c1
    1.6	0.696	2.7	2.2	13.8	5.9	0.6	2.1	5.7	i
O=C(COc1ccccc1Cl)NC1CC1
    1.1	0.712	1.6	-6.5	6.9	9.4	-1.8	-2.7	0.6	i
CC1CCCC(NC(=O)c2ccc3c(c2)OCO3)C1C (centres undefined)
    -0.4	0.688	1.7	3.1	-0.6	-4.8	-0.2	-0.7	-11.8	i
Cc1cc(=O)oc2cc(NC(=O)C(C)Oc3ccc(F)cc3)ccc12 (centres undefined)
    -0.3	0.624	-131.0	-0.5	4.9	6.8	-0.6	-1.4	5.9	i
COc1ccc(CN2CCc3ccccc3C2)c(OC)c1
    -0.2	0.634	2.7	-1.4	-16.9	-12.2	0.7	/	2.1	i
COCCN(C(=O)CSc1nc2ccccc2s1)c1c(N)n(Cc2ccccc2)c(=O)[nH]c1=O
    /	0.705	-4.5	/	-1.0	3.2	7.9	-1.3	/	i
CCn1c(SCC(=O)Nc2ccc(S(N)(=O)=O)cc2)nnc1-c1cccc(OC)c1
    0.1	0.761	-0.6	-3.6	/	/	/	/	-17.5	/
Cc1c(C(=O)NCCN2CCOC2=O)oc2c(F)cccc12
    0.2	0.656	1.4	-5.7	1.1	2.2	-2.9	0.1	0.4	i
COC(=O)CSc1ncccc1-c1nc2ccccc2[nH]1
    -1.7	0.724	-0.8	1.6	/	/	/	/	2.1	/
Cc1cccc(Cn2nc(C)c(NC(=O)c3ccc(F)cc3)c2C)c1
    0.5	0.702	1.8	-2.0	-8.9	7.7	-0.2	-1.0	-8.2	i
S=C(NCc1ccc(Cl)c(Cl)c1)NCc1ccco1
    0.2	0.623	6.1	-10.0	1.7	-3.3	-0.7	3.2	-15.9	i
COc1ccc(-c2nc(C)sc2C)cc1
    -1.6	0.705	4.5	2.7	11.6	4.1	-1.2	0.5	-15.0	i
CCOC(=O)c1ccc(N2C(=O)CC(N3CCC(O)(c4ccc(Br)cc4)CC3)C2=O)cc1 (centres undefined)
    0.3	0.794	0.6	-4.9	/	/	/	/	-3.0	/
Cn1c(=O)c2c(ncn2CC(=O)OCC(=O)NCc2ccccc2Cl)n(C)c1=O
    1.5	0.636	1.1	-4.2	/	/	/	/	0.1	/
COc1cccc(-c2nnc(-c3ccc4ccccc4c3)o2)c1
    /	0.671	-4.5	/	/	/	/	0.1	/	i
Nc1cccc(NP(=O)(c2ccccc2)c2ccccc2)c1
    0.2	0.641	1.8	-11.8	2.1	1.5	-2.8	/	1.8	i
Cc1ccc(-n2nc(C)cc2NC(=O)CC#N)cc1
    0.0	0.672	0.3	0.5	12.0	15.8	5.7	-13.5	-8.9	i
CCOC(=O)c1c(CSc2ccccc2)n(C)c2cc(Br)c(OCC(O)CNC(CO)(CO)CO)cc12 (centres undefined)
    -0.2	0.68	6.6	-0.8	3.4	2.1	-2.0	3.4	27.0	i
CCOC(=O)CNC1CC(=O)N(c2ccc(Br)cc2)C1=O (centres undefined)
    -0.1	0.636	0.3	-6.7	5.2	9.0	-2.3	-8.9	-9.3	i
CCCc1nnc(NC(=O)CCC(=O)N2CCN(Cc3cc(F)ccc3OC)CC2)s1
    -0.4	0.728	4.0	-5.1	-6.0	-0.2	3.5	0.0	26.6	i
Nc1c(-c2cccc(Cl)c2)cnn1-c1ccccc1
    -7.4	0.677	1.5	-7.6	-17.8	-17.4	-5.4	0.2	-9.3	i
O=C(NCCOc1ccccc1)C1CCCN1C(=O)c1cccs1 (centres undefined)
    1.8	0.673	1.8	-8.2	/	/	/	/	-0.3	/
COc1cccc(/C=C/C(=O)Oc2ccc(C(=O)c3ccc(F)cc3)cc2)c1
    0.3	0.652	3.8	7.7	6.1	2.6	2.4	-11.0	9.1	i
Clc1ccc(Oc2nc(Oc3ccc(Cl)cc3)nc(N3CCOCC3)n2)cc1
    -0.1	0.658	1.7	41.0	/	/	/	/	45.8	/
COC(=O)c1ccc(NC(=O)c2ccc(F)cc2)o1
    -1.0	0.675	3.9	3.4	/	/	/	/	-2.5	/
CCOc1ccc2[nH]c(=O)c(CN(Cc3ccc(F)cc3)C(=O)c3ccco3)cc2c1
    0.3	0.705	-9.1	5.8	/	/	/	/	8.5	/
O=[N+]([O-])c1cccnc1Oc1cccnc1
    0.4	0.671	2.9	-5.4	6.0	6.8	2.7	-12.3	-0.3	i
COC(=O)C1=C(CS(=O)(=O)c2ccccc2)NC(=O)NC1c1ccc(OC)c(OC)c1 (centres undefined)
    -1.4	0.701	-0.9	-10.7	8.4	9.3	0.2	-2.0	-8.5	i
Cc1cc(-c2c(C)[nH]n(-c3ccc(Cl)cc3)c2=O)n(-c2ccccc2)n1
    -0.1	0.724	2.2	-4.5	/	/	/	/	-0.7	/
CC(C)C(=O)N1CCN(c2ccccc2NC(=O)c2ccc(Br)o2)CC1
    -0.1	0.686	4.4	2.3	-17.8	-38.1	-7.7	1.3	/	i
O=S(=O)(NCCNS(=O)(=O)c1c(F)cccc1F)c1ccc2c(c1)OCCO2
    1.4	0.707	2.5	2.8	-1.4	6.8	2.6	-5.3	/	i
COc1cc2ccccc2cc1C(=O)Nc1ccc(N2CCN(C(=O)C(C)C)CC2)cc1
    -0.4	0.713	4.7	11.9	6.0	17.2	-0.7	-1.0	28.1	i
O=C(CN(c1cccc(Cl)c1)S(=O)(=O)c1ccc(Cl)cc1)NCc1ccccn1
    -0.5	0.647	1.2	5.1	/	/	/	2.2	24.8	i
COc1cccc(-c2cc(C(=O)NCC3CCCO3)c3ccccc3n2)c1 (centres undefined)
    -0.5	0.674	2.6	0.7	/	/	/	0.9	7.1	i
COc1ccc(CCNC(=O)c2ccc(N3CCCC3=O)cc2)cc1
    0.6	0.698	-0.7	7.4	/	/	/	/	-5.6	/
c1ccc2c(c1)nc1n2CCN1
    -0.2	0.735	-0.5	-0.7	/	/	/	/	-7.9	/
Cc1cc(=O)oc2cc(OCC(=O)OCC(=O)NC(C)C)ccc12
    0.7	0.697	-44.4	-3.6	26.6	16.9	0.2	-0.1	-5.8	/
CCC1(C)CN=C(c2ccccc2)NC1 (centres undefined)
    /	0.701	3.5	/	10.5	11.3	3.7	0.5	/	i
CC(=O)C1=C(O)C(=O)N(c2ccccn2)C1c1cccc(F)c1 (centres undefined)
    -2.5	0.689	-0.6	0.4	-11.5	-9.6	-1.8	-1.8	-10.8	i
O=c1[nH]ncc(NCCCO)c1Cl
    1.2	0.7	1.5	-12.6	/	/	/	/	-0.1	/
O=C(CCn1nnc2ccccc21)Nc1nnc(COc2ccccc2F)s1
    -0.3	0.746	2.0	5.5	/	/	/	/	-8.2	/
COc1ccc(CCNC(=O)c2cc3c(C)nccc3[nH]c2=O)cc1OC
    -0.6	0.696	7.5	2.1	2.3	5.5	1.3	-0.3	-2.1	i
Cc1ccc(Nc2cc(C)nc(N3CCOCC3)n2)cc1
    1.2	0.747	0.4	-8.7	/	/	/	/	/	/
O=C(CCc1nnc(CCC2CCCCC2)o1)NCCn1cccn1
    0.0	0.648	5.2	-4.6	19.7	6.3	8.5	-1.3	-4.3	i
CCOc1ccc(S(=O)(=O)Nc2cc(OC)c(OC)cc2C(=O)O)cc1
    -0.1	0.7	-0.4	-8.4	/	/	/	/	-15.2	/
COC(CNC(=O)c1cnn2c(C)c(Cc3ccccc3)c(C)nc12)OC
    0.5	0.677	-36.0	7.9	-0.7	4.1	-0.9	2.6	4.9	i
CCOC(=O)/C(N=Nc1sc(C(=O)OC)c(C)c1C(=O)OCC)=C(\O)CCl
    0.6	0.715	2.0	10.1	/	/	/	/	0.0	/
O=C(O)C(Cc1ccccc1[N+](=O)[O-])N1C(=O)c2ccccc2C1=O (centres undefined)
    /	0.694	1.8	/	4.9	5.1	-0.4	-0.1	/	i
CCc1ccc(N(C(=O)CCC(=O)Nc2cc(C)on2)C(C(=O)NC(C)(C)C)c2ccc(OC)cc2)cc1 (centres undefined)
    1.6	0.66	5.0	-7.0	9.4	13.4	2.0	1.0	7.0	i
CCC(Sc1nc2ccsc2c(=O)n1Cc1ccc(C(=O)O)cc1)C(=O)Nc1ccc(C)c(Cl)c1 (centres undefined)
    0.1	0.706	2.6	6.4	-6.9	-13.5	2.9	-12.2	1.3	/
COc1ccc(S(=O)(=O)N2CC(C)OC(C)C2)cc1C(=O)N1CCCCC1 (centres undefined)
    0.1	0.69	7.0	0.8	2.8	4.6	1.2	-3.8	2.5	i
Cc1ccc2c(c1)-c1c(ssc1=S)C(C)(C)N2C(=O)c1ccco1
    1.0	0.715	7.4	-16.2	/	/	/	/	20.5	/
Oc1c(Br)cc(C2N=C(c3ccccc3)NO2)cc1Br (centres undefined)
    -4.2	0.676	4.1	5.7	/	/	/	/	2.2	/
CN1CCN(C(=O)c2cc(=O)c3cc(Cl)ccc3o2)CC1
    0.1	0.689	2.9	-4.6	7.3	22.9	-1.3	-1.0	11.1	i
CCOc1ccc(OCCC(=O)OCC(=O)Nc2cc(S(=O)(=O)N3CCOCC3)ccc2C)cc1
    -0.6	0.674	1.8	-10.6	13.9	8.3	-0.1	14.7	13.6	i
COc1ccc(-n2nc(C(=O)NCC(=O)N3CCCC3)c3ccccc3c2=O)c(OC)c1
    -0.1	0.63	1.5	2.9	0.9	11.3	-0.8	-1.0	-9.8	i

# Individual results from the entries so far.
# CCC1(C)CN=C(c2ccccc2)NC1 (centres undefined) @ Ecoli rRNA inh OD600 = 11.3
# O=C(O)C(Cc1ccccc1[N+](=O)[O-])N1C(=O)c2ccccc2C1=O (centres undefined) @ Ecoli rRNA inh RFP = -0.4
